Screening results as filed in PubChem BioAssay.
HNF4A DNA FP: change in binding of human HNF4 alpha to DNA | P41235 | HNF4a-FITC DNA binding, fluorescence polarization, 1 h | activity change, % at 10 µM | 360,000 tested, 0.3% active | AID 1224865; in the data active means activity change above about 30%, passing the limit was not always enough;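 further: controls were the assay level and a saturating level of protein; the project sought stronger binding though the title names inhibitors; some compounds called inactive have numbers as strong as hits; positive values seem to mean higher polarization but the record does not say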
Target sequence (P41235 whole entry, looked up): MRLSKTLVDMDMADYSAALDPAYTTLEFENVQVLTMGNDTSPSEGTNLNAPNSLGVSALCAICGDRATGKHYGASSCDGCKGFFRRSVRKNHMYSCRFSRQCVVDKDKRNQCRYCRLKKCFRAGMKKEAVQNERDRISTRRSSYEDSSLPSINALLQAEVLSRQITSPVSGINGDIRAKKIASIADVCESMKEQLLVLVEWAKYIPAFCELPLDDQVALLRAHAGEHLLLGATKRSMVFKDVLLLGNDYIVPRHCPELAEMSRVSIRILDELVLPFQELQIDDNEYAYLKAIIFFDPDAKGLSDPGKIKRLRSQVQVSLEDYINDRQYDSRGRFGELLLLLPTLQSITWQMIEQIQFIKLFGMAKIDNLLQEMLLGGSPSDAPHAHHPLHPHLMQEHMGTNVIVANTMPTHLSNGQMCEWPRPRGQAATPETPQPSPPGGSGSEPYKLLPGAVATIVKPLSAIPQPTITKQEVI
ALR H2O2 inh: human ALR oxidase inhibition via reduced H2O2; purified ALR, DTT oxidation, H2O2 HRP-luminol luminescence; inhibition, % (concentration not given with the values); P55789; 290,000 tested, 3.8% active;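 active means mean and each replicate at 75% or more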;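 further: stock transfer was 7.5 nL into about 7.5 µL; 0% = neutral wells and 100% = wells with inactivated enzyme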
rRNA inh HTS: inhibits bacterial ribosomal RNA function over humanized ribosomes; E. coli WT GFP vs humanized-ribosome RFP mutants, fluorescence, 24 h; hits give low values; DMSO median 0, no signal -100; GFP signal change (wild-type ribosome), % (no concentration beside the values); 350,000 tested, 1.6% active;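 active means significant combined selectivity score with lowered wild-type GFP, culture density cut under 30%, mutant RFP and density less affected; inactive means any of these conditions unmet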; further: one replicate is shown; some compounds called inactive have numbers as strong as hits
UCH37 DUB inh: human UCH37 deubiquitinating enzyme inhibition; 330,000 tested, 0.33% active; inhibition, % (test concentration not listed); Q9Y5K5; purified proteasome/UCH37, Ub-AMC cleavage fluorescence;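 active means mean of two replicates above 20%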;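 further: 0% = compound-free wells with enzyme and 100% = wells lacking proteasome; stock transfer was 100 nL into about 20 µL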
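Material: Human UCH37 enzyme supplied as purified proteasome complex | Schedule: 30 min compound-proteasome preincubation then 25 min substrate reaction, room temperature | Detection: AMC fluorescence from Ub-AMC cleavage, excitation 355 nm, emission 460 nm | Benchmarks: Wells without proteasome as full block, compound-free enzyme plus substrate as uninhibited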
FGF22 binding: shifts melting point of recombinant human FGF22; calls only at 9.99 µM; 340,000 tested, 1.5% active; recombinant FGF22 thermal shift, SYPRO orange fluorescence; percent of sucrose octasulfate shift, DMSO zero;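 active means melting point raised past a set limit in the mean and every replicate; three in four hits are not shown here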
Target sequence (Q9HCT0 whole entry, looked up): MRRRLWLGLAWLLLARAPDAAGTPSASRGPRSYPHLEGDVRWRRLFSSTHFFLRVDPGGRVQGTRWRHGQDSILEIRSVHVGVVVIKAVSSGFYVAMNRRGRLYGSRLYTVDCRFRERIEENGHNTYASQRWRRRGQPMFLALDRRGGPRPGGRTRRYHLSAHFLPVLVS
Ecoli growth: blocks Escherichia coli growth | OD600 absorbance (no concentration beside the values) | OD600, 23 h; hits give low values | AID 1053175 | 330,000 tested, 0.21% active;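 active means OD600 absorbance below the run mean of sample wells minus 3.6 SD, in any replicate, cut at about 0.56 in these data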;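 further: stock transfer was 300 nL into about 60 µL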
Beta2AR agonist: activates human beta-2 adrenergic receptor causing internalization | P07550 | Am2.2-beta2AR cells, FAP receptor internalization, flow cytometry; reference of the scale not given here | response, % (no concentration beside the values) | 340,000 tested, 0.43% active | AID 504454;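 active means response above a set limit, near 3 SD of response in nonfluorescent compounds, cut at about 42% in these data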;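 further: stock transfer was 100 nL into about 11 µL; a reference agonist was the positive control; negative values mostly stem from fluorescent compounds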
Target sequence (P07550 whole entry, looked up): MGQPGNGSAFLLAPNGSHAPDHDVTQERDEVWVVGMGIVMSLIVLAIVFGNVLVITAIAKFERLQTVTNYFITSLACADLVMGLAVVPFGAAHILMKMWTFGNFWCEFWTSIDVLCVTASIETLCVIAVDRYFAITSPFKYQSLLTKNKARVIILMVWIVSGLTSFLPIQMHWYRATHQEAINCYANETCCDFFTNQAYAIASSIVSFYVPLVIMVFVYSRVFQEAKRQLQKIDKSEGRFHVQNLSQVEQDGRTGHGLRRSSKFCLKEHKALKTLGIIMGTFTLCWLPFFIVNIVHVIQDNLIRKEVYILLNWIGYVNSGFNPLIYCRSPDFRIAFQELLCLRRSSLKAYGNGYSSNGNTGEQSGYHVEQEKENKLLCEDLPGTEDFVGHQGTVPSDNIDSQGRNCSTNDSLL
rRNA inh HTS OD600: further read-out of rRNA inh HTS, marked with its call; OD600 change, %; measured here: OD600 growth;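 optical density of the mix in the first replicate; 0 = DMSO median and -100 = no signal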
rRNA inh HTS RFP: further read-out of rRNA inh HTS, marked with its call; RFP signal change, %; measured here: RFP humanized mutant strains;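 first replicate; 0 = DMSO median and -100 = no signal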
Starred values were filed as active, the others as inactive; i = inactive; / = no result given; & = joins results of further samples. Only part of the results is shown. The share of hits here may be higher or lower than overall.

SMILES	HNF4A DNA FP	ALR H2O2 inh	rRNA inh HTS	rRNA inh HTS OD600	rRNA inh HTS RFP	UCH37 DUB inh	FGF22 binding	Ecoli growth	Beta2AR agonist
CC(C)N1CC=C2C(C#N)=C(N)C(C#N)(C#N)C(c3ccccc3)C2C1 (stereo unspecified)	-37.6	54.8	/	/	/	-12.9	/	0.742	1.1
CCOC(=O)CSC1=NC(=O)/C(=C\c2ccc(OC(C)=O)cc2)S1	3.2	99.9*	/	/	/	12.7	/	0.685	25.3
CN(Cc1ccc(C(C)(C)C)cc1)C(=O)C1CCN(C(=O)Nc2ccccc2)CC1	1.0	0.6	-20.8	-41.8	-6.9	0.2	i	0.66	16.1
Cc1ccc2c(c1)C1C=CCC1C(C(=O)NCCCN1CCOCC1)N2 (stereo unspecified)	0.0	0.8	/	/	/	0.3	/	0.66	3.8
Cn1ccnc1SCC(=O)Nc1cccc(C#N)c1	3.3	-6.0	3.1	7.1	-2.0	-1.5	i	0.66	-3.5
O=C(/C=C/c1cccc([N+](=O)[O-])c1)NCCSCc1ccco1	-2.3	98.5*	-4.8	-2.3	-2.7	-1.5	i	0.656	12.7
CC(=O)c1ccc(N2CCN(C(=O)CCCn3c(=O)[nH]c4ccsc4c3=O)CC2)cc1	0.1	3.6	0.2	-4.1	-1.1	1.9	i	0.666	-4.1
CCOC(=O)N1CCN(C(=O)c2cnn3ccccc23)CC1	-2.9	-3.5	1.5	3.4	-0.6	5.3	i	0.731	3.5
CCNC(=O)C1Cc2ccccc2CN1S(=O)(=O)c1ccc(F)cc1 (stereo unspecified)	0.8	-6.4	5.3	-2.6	-5.5	3.2	i	0.709	-3.5
COc1cccc(-c2nc(CS(=O)(=O)CC(=O)N3CCc4ccccc43)c(C)o2)c1	0.3	-35.2	1.3	12.2	6.4	3.5	i	0.796	5.1
COC(=O)c1cc(NCc2cccs2)ccc1N1CCOCC1	3.4	99.5*	/	/	/	-21.1	/	0.707	-3.0
CC(O)CNCCOc1cccc(Oc2ccccc2)c1 (stereo unspecified)	-3.0	29.1	0.4	-19.9	0.0	1.3	i	0.703	-4.2
N=NC(=O)c1ccccc1Nc1c(O)[nH]c2ccccc12	1.8	/	8.8	16.4	9.0	/	i	/	-8.3
C/C(=N\NC(=O)CSc1nc2ccccc2s1)c1ccco1	0.4	3.6	/	/	/	/	i	/	-13.3
O=C(c1cnsn1)N1CCC(CO)(Cc2cccc(F)c2)CC1	0.5	-5.7	-1.9	-0.5	-1.8	2.7	i	0.682	-1.3
Cc1occc1-c1nnc(SCC(=O)N2CCN(c3ccccc3)CC2)n1C	1.7	24.7	/	/	/	3.5	/	0.719	-0.8
Cc1ccc(O)c(N=Nc2ccc(S(=O)(=O)N3CCCC3)cc2)c1	5.4	-1.2	-55.3	-74.5	-31.5	3.8	i	0.706	0.2
CCOc1ccc(NC(=O)C(Cc2ccccc2)NC(=O)C2CCCCC2)cc1 (stereo unspecified)	1.5	-3.0	/	/	/	3.2	/	0.723	4.8
CCc1nnc(NC(=O)c2ccc(S(=O)(=O)NCC(C)C)cc2)s1	1.8	-2.4	/	/	/	3.6	/	0.711	3.2
Cc1nc2cc(CO)ccc2n1C	1.1	-1.7	/	/	/	-2.0	/	0.76	-1.3

Shown with values under each structure: part of the list above
Below each compound: HNF4A DNA FP | ALR H2O2 inh | rRNA inh HTS | rRNA inh HTS OD600 | rRNA inh HTS RFP | UCH37 DUB inh | FGF22 binding | Ecoli growth | Beta2AR agonist
CCOC(=O)N1CCN(C(=O)c2cnn3ccccc23)CC1
  -2.9 | -3.5 | 1.5 | 3.4 | -0.6 | 5.3 | i | 0.731 | 3.5
O=C(/C=C/c1cccc([N+](=O)[O-])c1)NCCSCc1ccco1
  -2.3 | 98.5* | -4.8 | -2.3 | -2.7 | -1.5 | i | 0.656 | 12.7

Additional results.
SMILES	HNF4A DNA FP	ALR H2O2 inh	rRNA inh HTS	rRNA inh HTS OD600	rRNA inh HTS RFP	UCH37 DUB inh	FGF22 binding	Ecoli growth	Beta2AR agonist
COc1cccc(CNC(=O)CCC2CCCN(Cc3ccc(OC(F)F)cc3)C2)c1 (stereo unspecified)	-3.3	-27.3	-0.5	2.0	-2.4	2.2	/	0.679	0.0
COc1cc(/C=N/Nc2nc3ccccc3o2)cc(OC)c1O	0.7	99.0*	/	/	/	/	/	/	-5.5
COc1cc(NC(=O)c2ccc(-c3csc(C)n3)cc2)c(OC)cc1Cl	3.1	-5.2	-3.8	8.6	-2.7	-34.0	i	0.707	-1.8
COc1ccc(C(=O)NN(C)c2nc(-c3ccccc3)nnc2C(F)(F)F)cc1	-0.2	-2.6	/	/	/	1.8	/	0.804	49.1*
O=C(NCCS(=O)(=O)N1CCN(c2ccccc2F)CC1)c1c(F)cccc1F	3.1	1.7	0.1	2.7	-0.6	1.1	i	0.62	-6.6
Cc1ccc(N2C(=O)CC(Cn3nc(C)cc3C)C2=O)cc1 (stereo unspecified)	-5.6	8.3	/	/	/	0.3	/	0.676	0.7
COc1ccc(C(=O)N=C2SC3CS(=O)(=O)CC3N2Cc2ccc(F)cc2)cc1 (stereo unspecified)	-2.8	0.2	-9.5	-8.0	-8.3	-1.0	i	0.671	-0.5
CC(OC(=O)C1COc2ccccc2O1)C(=O)N(C)c1ccccc1 (stereo unspecified)	-1.9	-18.4	6.1	-5.6	-2.2	0.4	i	0.695	-8.5
O=C(CCC(=O)N/N=C/c1cc(Cl)cc(Cl)c1O)NCc1ccccc1	0.5	1.7	7.2	5.3	-1.1	/	i	/	2.4
O=C1CC(C(=O)Nc2ccc(F)c(Cl)c2)N=C(N2CCCCC2)N1 (stereo unspecified)	-3.6	-0.7	/	/	/	6.9	/	0.671	7.3
Cn1cc(-c2csc(C(O)(c3ccccc3)C(F)(F)F)n2)cn1 (stereo unspecified)	-1.2	/	-0.4	5.2	-2.1	/	i	/	/
CCOC(=O)C1CCN(Cc2cnc(Oc3ccc(C(C)(C)C)cc3)s2)CC1	-0.9	-3.9	/	/	/	0.2	/	0.66	-3.2
COc1ccccc1OC(=O)c1ccc2nsnc2c1	-1.3	0.5	0.0	-4.9	-1.5	-0.5	/	0.742	1.6
O=c1c2ccccc2nc2n1C(CSc1ccc(Br)cc1)CN2 (stereo unspecified)	-1.1	-5.4	/	/	/	0.4	/	0.77	-1.0
O=[N+]([O-])c1ccc2nc(-c3ccccc3)cc(-c3ccccc3)c2c1	3.1	-51.0	/	/	/	5.1	/	0.728	-5.8
Cc1ccc(NC(=O)CC2=NC(=O)C(CC(=O)Nc3ccccc3C)S2)cc1 (stereo unspecified)	0.1	-3.7	5.3	8.6	3.9	-73.8	i	0.718	5.4
Cc1ccc(-c2nnc(Cc3ccc([N+](=O)[O-])cc3)o2)cc1	-2.1	/	6.7	11.3	-7.5	0.1	i	0.68	2.3
Cc1ccc(C(=O)c2sc3c(c2N)c(=O)[nH]c(=O)n3CCc2ccccc2)cc1	-0.2	-10.0	/	/	/	-50.8	/	0.765	-5.6
CCC(=O)N1CCc2cc(S(=O)(=O)CCC(=O)NCc3cccs3)ccc21	2.5	-10.6	/	/	/	0.2	/	0.719	-10.5
CS(=O)(=O)c1ccc(Cl)c(NC(=O)COC(=O)c2cccc(S(=O)(=O)N3CCCCC3)c2)c1	3.0	-1.3	-5.8	-8.3	3.8	1.3	i	0.738	0.8
CCOc1ccccc1CNS(=O)(=O)c1ccc2c(c1)oc(=O)n2C	4.3	-4.8	-1.6	3.5	-2.5	-1.3	i	0.739	-8.4
CCn1c2ccccc2c2cc(NC(=O)CSc3nnc(-c4ccc(OC)cc4)n3N)ccc21	-2.3	6.8	/	/	/	-6.2	/	0.674	12.9
O=C(CN1CCN(C(=O)c2ccco2)CC1)Nc1ccc(F)cc1F	-1.3	12.0	6.1	6.9	-0.4	3.6	i	0.642	-6.3
Cc1noc(NS(=O)(=O)c2ccc(NC(=O)c3cc4ccccc4o3)cc2)c1C	-3.0	/	-24.8	-23.8	-7.6	3.6	i	0.701	-5.0
CCC(C)(C)C(=O)Nc1nnc(CCc2ccccc2)s1	1.6	-3.5	-21.8	-32.3	-0.8	3.8	i	0.655	5.8
O=C(Nc1ccccc1)N1C2CCC1CC(O)(c1cccnc1)C2 (stereo unspecified)	0.8	-9.7	/	/	/	2.0	/	0.677	0.4
COc1ccc(C2=C(C#N)C(=O)OC2)cc1	-4.3	/	/	/	/	-66.5	/	0.668	4.8
COc1ccccc1NC(=O)N1CCc2c([nH]c3ccccc23)C1C(F)(F)F (stereo unspecified)	0.0	5.2	-30.5	-63.0	2.9	1.3	i	0.639	2.0
N#CCCN(C(=O)COC(=O)C1CCN(c2ccc(C(F)(F)F)cn2)CC1)c1ccc(F)cc1	-2.4	-3.4	-9.3	-18.6	-1.8	0.1	i	0.702	-4.0
Cc1ccccc1C(=O)NC(=S)NCCN1CCOCC1	-0.3	-5.8	/	/	/	5.2	/	0.65	2.4
COc1cc(CN2CCC(C(=O)NCC(C)(C)CN(C)C)CC2)ccc1OCc1ccccc1	0.6	-4.3	18.1	11.6	2.7	0.6	i	0.651	6.3
COc1cc(F)ccc1-c1csc(C(O)c2ccc(F)cc2)n1 (stereo unspecified)	-0.2	/	-59.0	-78.7	-20.0	/	i	/	/
COc1ccc(CCCc2nnc(SCC(=O)NN)o2)cc1	-1.5	5.6	10.2	2.6	2.3	1.8	i	0.671	-0.2
COc1ccccc1N=C1SCC(=O)N1Cc1ccco1	-0.5	-2.4	-1.7	-6.1	-0.5	3.0	i	0.701	-5.0
CCOc1ccccc1N(C)C(=O)c1ccc2c(=O)n3c(nc2c1)CCCCC3	-6.3	-6.0	-1.4	-5.5	0.4	-0.6	i	0.634	0.1
O=C(N/N=C/c1cccc(O)c1)c1ccc(COc2ccccc2Br)cc1	2.8	3.8	/	/	/	/	/	/	4.1
COc1ccc(CN2CCC(n3nccc3NC(=O)C3CCCC3)CC2)cc1	-0.1	-7.1	6.4	7.0	0.7	1.6	i	0.702	-2.3
C[C@H]1CN([C@@H](C)CO)C(=O)c2cccc(NC(=O)C3CC3)c2O[C@H]1CN(C)Cc1ccc(-c2ccccc2)cc1	-2.2	-4.8	-4.4&-15.8	0.7&-26.7	-1.5&-5.1	1.9	i	/	19.0
Cc1cc(C)cc(-n2ncc3c2CCCC3NC(=O)CN2CCCCC2=O)c1 (stereo unspecified)	-0.2	-8.6	9.8	6.5	-1.4	-2.8	i	0.721	-3.1
COc1cc(NC(=O)c2ccccn2)cc(OC)c1OC	0.6	-3.7	3.0	-7.1	-3.0	2.5	i	0.665	-4.1
COc1ccc(S(=O)(=O)N(CC(=O)NCc2ccco2)c2ccccc2)cc1	-0.5	-6.9	/	/	/	3.2	/	0.674	7.9
CC(=O)c1ccc(NC(=O)CSc2nc3nn(-c4ccccc4)c(=O)c-3c3n2CCCCC3)cc1	1.7	/	10.5	13.7	1.6	5.3	i	0.712	9.9
Cc1cccc(NC(=O)c2ccccc2C(=O)O)c1	2.3	1.6	/	/	/	-0.1	/	0.663	12.2
O=C(O)c1ccc2c(c1)c1c3n2CCNC3CCC1 (stereo unspecified)	-2.8	-22.9	3.0	10.6	-1.1	-2.3	i	0.663	6.9
CCOc1ccc(NC(=O)C2CCN(S(=O)(=O)c3c(C)n[nH]c3C)CC2)cc1	1.4	-4.4	/	/	/	3.6	/	0.773	-3.3

Looked up above:
COc1ccc(S(=O)(=O)N(CC(=O)NCc2ccco2)c2ccccc2)cc1 in ALR H2O2 inh = -6.9
O=C(O)c1ccc2c(c1)c1c3n2CCNC3CCC1 (stereo unspecified) in Ecoli growth = 0.663
CC(=O)c1ccc(NC(=O)CSc2nc3nn(-c4ccccc4)c(=O)c-3c3n2CCCCC3)cc1 in rRNA inh HTS = 10.5
CCOc1ccc(NC(=O)C2CCN(S(=O)(=O)c3c(C)n[nH]c3C)CC2)cc1 in UCH37 DUB inh = 3.6
